KCNQ2 block: KCNQ2 potassium channel inhibitors, primary screen, cell-based, CHO-K1, FluxOR thallium flux, B-score (AID 2156); B-score at 10 µM; hit rate 1.1% among 310,000; 20 min; hits give low values; only compounds with negative scores are shown here; some inactives read as strong as hits;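 active = fluorescence ratio B-score at most minus 3 library SDs, with starting brightness B-score within 2 library SDs, cut at about -5.5 in these data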
Target sequence (O88943 whole entry, looked up): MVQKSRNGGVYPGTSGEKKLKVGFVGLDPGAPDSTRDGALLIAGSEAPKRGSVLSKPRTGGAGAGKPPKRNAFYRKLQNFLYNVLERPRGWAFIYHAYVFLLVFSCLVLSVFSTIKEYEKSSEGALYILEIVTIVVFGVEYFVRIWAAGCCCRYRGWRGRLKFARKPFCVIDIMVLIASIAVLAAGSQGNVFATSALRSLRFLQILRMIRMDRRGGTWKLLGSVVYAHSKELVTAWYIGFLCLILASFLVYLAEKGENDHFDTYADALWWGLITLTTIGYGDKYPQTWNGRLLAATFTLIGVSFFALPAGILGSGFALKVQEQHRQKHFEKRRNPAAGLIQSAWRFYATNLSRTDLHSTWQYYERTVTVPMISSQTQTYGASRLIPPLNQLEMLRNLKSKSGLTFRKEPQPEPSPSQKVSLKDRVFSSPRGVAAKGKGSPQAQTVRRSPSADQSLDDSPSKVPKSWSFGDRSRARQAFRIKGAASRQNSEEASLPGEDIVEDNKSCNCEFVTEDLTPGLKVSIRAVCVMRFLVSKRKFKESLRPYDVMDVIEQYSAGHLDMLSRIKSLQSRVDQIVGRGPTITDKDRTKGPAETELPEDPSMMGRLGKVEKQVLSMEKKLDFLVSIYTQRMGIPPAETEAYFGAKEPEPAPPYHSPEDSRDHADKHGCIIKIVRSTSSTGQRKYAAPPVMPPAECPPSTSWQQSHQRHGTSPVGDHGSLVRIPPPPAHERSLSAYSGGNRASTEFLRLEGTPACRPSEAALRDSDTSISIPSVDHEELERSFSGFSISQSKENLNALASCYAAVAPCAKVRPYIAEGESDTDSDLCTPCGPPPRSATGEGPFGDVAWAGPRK
KCNQ2 block baseline: further read-out of KCNQ2 block, marked with its call; B-score; measured here: initial fluorescence intensity artifact check;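 brightness before thallium and not channel activity; 0 = typical well and far values either way flag optical interference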
* hit, by the source's call; i = inactive. The list is partial; rates above refer to the full screens.

KCNQ2 block,KCNQ2 block baseline,SMILES
i,-1.7,COC(=O)c1ccc(CN2CCC(CO)(Cc3cccc(OC)c3)CC2)cc1
i,-0.64,Cc1cc(N)n2nc(-c3ccccc3)c(-c3ccccc3)c2n1
i,1,COc1ccc(S(=O)(=O)N2CCN(c3nc(C)cc(C)n3)CC2)cc1
i,-1.6,COc1ccc(C)cc1NCc1ccc([N+](=O)[O-])cc1
i,-1.1,Cc1ccc(C)c(OCc2cc(C(=O)NC(C)c3cnn(C)c3)no2)c1 (stereo not drawn)
i,2.1,Cc1ccc(OCc2nc(C#N)c(NCc3ccc4c(c3)OCO4)o2)cc1
i,1.4,O=C(NCCCN1CCOCC1)c1ccc2c(c1)N(Cc1cccc(F)c1)C(=O)c1ccccc1S2
i,-0.45,CC(C)OC(=O)/C(C#N)=C/c1cn(Cc2ccccc2)c2ccccc12
i,0.95,Cc1cc(Cl)ccc1OCC(=O)NCCOc1nc(N2CCOCC2)nc(N2CCOCC2)n1
i,3.6,COc1cc(/C=C/c2ccc3c([N+](=O)[O-])cccc3n2)ccc1OCC(=O)O
i,0.01,Cc1sc2ncn(CC(=O)NCc3ccccn3)c(=O)c2c1S(=O)(=O)N1CCOCC1
i,-0.34,COc1ccc(C(=O)NCC(c2ccc3c(c2)OCO3)N2CCN(c3ccc(OC)cc3)CC2)cc1 (stereo not drawn)
i,-1.6,COc1ccccc1-c1nnc(SCC(=O)NCc2ccco2)n1N
i,-0.03,Cc1ccc(OCC(=O)NCC(=O)Nc2ccc(F)c(F)c2F)c([N+](=O)[O-])n1
i,0.32,Cc1[nH]c(=O)[nH]c(=O)c1S(=O)(=O)Nc1ccc(F)c([N+](=O)[O-])c1
i,0.08,CCOc1ccc(NC(=O)CN(C)C(=O)c2ccc(C)o2)cc1OCC
i,-0.84,COc1ccc(-c2oc3ccc(-c4ccc(OC)nc4)cc3c2C#CC2(O)CCCCC2)cc1
i,2.8,Cc1nc(N2CCN(C)CC2)[nH]c(=O)c1Cc1cccc2ccccc12
i,-0.16,Cc1nn(CCCC(=O)NC2CCC(C)CC2)c(=O)c2nn(-c3ccccc3)c(C)c12 (stereo not drawn)
i,-0.34,O=[N+]([O-])c1cncc([N+](=O)[O-])c1Nc1cccc(O)c1
i,3.2,O=C(c1cc(=O)[nH]c2ccccc12)N1CCN(c2ccccc2)CC1
i,-2.8,COc1cc(OC)cc(C(=O)NCc2n[nH]c(=S)n2-c2ccccc2OC)c1
i,0.88,CC(=O)Nc1ccc2nc(-c3ccccc3)cn2c1
i,0.97,S=C(NCC1CCCO1)Nc1ccccc1Cl (stereo not drawn)
i,0.03,Cc1cc(OCC(=O)Nc2ccc3oc(=O)ccc3c2)ccc1Cl
i,-1.2,COc1ccc(NC(=O)C(=O)NCC(=O)Nc2cc(OC)ccc2OC)cc1
i,-1.6,Cc1ccc(-c2nnn(CC(=O)N(CC(=O)NCc3ccccc3)c3cccc(C)c3C)n2)o1
i,-0.38,Cc1nn(-c2cc(C(F)(F)F)ccc2Cl)c2nc(C(F)(F)F)[nH]c(=O)c12
i,1.1,CC(NC(=O)c1ccco1)C(=O)OCC(=O)c1ccc(Cl)s1 (stereo not drawn)
i,-1.4,O=C(Nc1ccccc1)C1=C[C@@H](c2csc3ccccc23)C[C@@H](OCc2ccc(CO)cc2)O1
i,1.1,Nc1c(S(=O)(=O)c2cccs2)c2nc3ccccc3nc2n1CCc1ccccc1
i,0.97,CSCCC(NC(=O)c1ccccc1)C(=O)N1CCN(C(c2ccccc2)c2ccccc2)CC1 (stereo not drawn)
i,0.26,Cc1ccc(S(=O)(=O)NC(=NC2CCCCC2)c2ccc(F)cc2)cc1
i,0.21,CCOc1ccc(C(C(=O)NC2CCCC2)N(C(=O)c2snc(C(N)=O)c2N)C2CCCC2)cc1 (stereo not drawn)
i,3,CCOCCCNC(=S)Nc1ccc2nc(N3CCN(CC)CC3)cc(C)c2c1
i,-1,O=C(c1ccc(CS(=O)Cc2ccc(Cl)cc2)o1)N1CCN(c2ccccn2)CC1 (stereo not drawn)
i,-1.8,Cc1ccc(/C=C/C(=O)N2CC(=O)Nc3ccccc32)o1
i,2.9,Cn1nc(C(F)(F)F)cc1-c1ccc(/C=C(\C#N)C(=O)c2ccccc2)s1
i,0.04,O=C(NCCC(=O)N1CCCC(C(F)(F)F)C1)c1ccccc1Cl (stereo not drawn)
i,0.08,COCCOC(=O)C1=C(C)NC(=O)NC1c1ccc(OC(=O)c2ccco2)c(OC)c1 (stereo not drawn)
i,-0.74,CCOc1ccc(CCNC(=O)C2CCC(=O)N2CCc2ccccc2)cc1OCC (stereo not drawn)
i,-0.57,Cc1nn(C)cc1/C=C/C(=O)c1cccs1
i,0.8,CC(=O)N1C(C(=O)O)CSC1c1cccc(C)c1 (stereo not drawn)
i,-3.1,CCCCN1C(=O)C(NC(C)=O)c2cc(Br)ccc21 (stereo not drawn)
i,0.7,CCOC(=O)C(=CNc1cc(C)nn1-c1ccccc1)C(=O)OCC
i,0.76,Cc1ccc(CNC(=O)CNS(=O)(=O)c2ccc3nc(C)sc3c2)cc1
i,-0.17,CC1CCCN(C(=S)Nc2ccc(F)cc2)C1 (stereo not drawn)
i,-0.87,COC(=O)c1ccc(CN2CCCC(C(=O)Nc3cccc(-n4cccn4)c3)C2)cc1 (stereo not drawn)
i,2.6,Nc1nc(Nc2ccccc2)sc1C(=O)c1ccccc1
i,-1.1,Cc1cc(C)c2c(c1)/C(=N/NS(=O)(=O)c1ccc(Br)cc1)CCC2
i,0.27,CCOC(=O)C1C(C)=CC(=O)CC1c1ccco1 (stereo not drawn)
i,-0.49,O=C(NCCc1ccccc1F)C1CCCN(c2nc3ccccc3s2)C1 (stereo not drawn)
i,-2.3,CCOC(=O)NNc1ccc(C(F)(F)F)cn1
i,-1.6,O=C(COc1cccc(Cl)c1Cl)Nc1ccc2c(c1)CCC2
i,-0.22,CC(=O)Nc1cccc(NC(=O)C2CC(=O)N(CCc3ccc(F)cc3)C2)c1 (stereo not drawn)
i,0.51,O=C(NCC(=O)N(c1ccc2c(c1)OCO2)C(C(=O)NC1CCCC1)c1ccncc1)c1ccco1 (stereo not drawn)

(more compounds)
KCNQ2 block,KCNQ2 block baseline,SMILES
i,-0.29,C[N+](C)(C)C[C@H](O)CC(=O)O
i,-0.79,Cc1ccccc1CN1C[C@@H]2C[C@@H](c3cn(C)nc3-c3ccccc3)N3CCC[C@@]23C1=O
i,0.07,CCOC(=O)c1c(S(=O)(=O)N2CCC(C)CC2)c(C)n(C)c1C
i,-1.8,O=C(NCc1ccco1)c1cccn2c(=O)c3sccc3nc12
i,0.41,CC(C)(C)NC(=O)C(c1ccccn1)N(C(=O)C1CSC(=O)C1)c1ccccc1F (stereo not drawn)
i,0.43,Cc1ccc(C(=O)N2CCCCC2)cc1S(=O)(=O)N1CCOCC1
i,-1.7,CC(C)N(Cc1nc(-c2ccccc2)no1)C(=O)CN(C)S(=O)(=O)c1ccc(Br)cc1
i,2.9,CC(C)Oc1cccc(C(=O)Nc2ccc(N3CCN(C)CC3)cc2)c1
i,-0.56,S=C(c1cn(Cc2ccccc2)c2ccccc12)N1CCOCC1
i,-0.64,Cc1cc2cc(C#N)c(NCCNC(=S)NCCCN3CCOCC3)nc2cc1C
i,-1.1,COc1c2c(nc3occc13)C(CC=C(C)C)(OC)C(O)CC2 (stereo not drawn)
i,-0.01,CCOc1cc2[nH]c(=S)n(Cc3ccc(C(=O)NCC(OC)OC)cc3)c(=O)c2cc1OCC
i,-1.5,CCOc1ccc(CN2CCC(n3nccc3NC(=O)CCCc3ccccc3)CC2)cc1
i,-2.3,CC[C@@H](C)[C@H](NC(=O)OCc1ccccc1)c1nnc([C@@H](NC(=O)OCc2ccccc2)[C@@H](C)CC)o1
i,-0.82,Cc1ccc(C)c(OCCCC(=O)O)c1
i,2,CN(C(=O)/C(N=Nc1cccc(C(F)(F)F)c1)=C(\O)C(F)(F)F)c1ccccc1
i,0.24,CC(C)N(C(=O)C1CC(=O)OC12CCCCC2)C(C)C (stereo not drawn)
i,-2.9,Cc1ccc(O)c(NC(=O)c2cc(-c3ccco3)on2)c1
i,0.01,CC(=O)N1CCN(C(=S)c2cccc([N+](=O)[O-])c2)CC1
i,-0.1,COc1cc(/C=N\NC(=O)c2ccc(C)nc2)ccc1OC(=O)c1cccc(F)c1
i,-0.92,CCOC(=S)N/C(=N\S(C)(=O)=O)c1ccccc1
i,-0.04,Cc1ccc(C(=O)NCCc2ccccc2)cc1N1CCCC1=O
i,-0.04,CCOc1ccc(-c2[nH]ncc2-c2ccc(Cl)cc2)c(O)c1
i,0.18,O=c1cc(-c2ccccc2)[nH]c2cc(F)ccc12
i,-1.3,COc1ccc(OC)c(-n2c(-c3cc(-c4ccccc4)n[nH]3)n[nH]c2=S)c1
i,-1.2,Cc1ccc(NC(=O)c2nc[nH]c2C(=O)N2CCOCC2)c(C(=O)c2ccccc2)c1
i,2.1,Nc1nnc(SCC(=O)OCc2ccc(Cl)c(Cl)c2)s1
i,0.34,O=C(O)CSc1nnc(Cc2ccccc2)n1-c1ccccc1
i,0.38,CC(C)N(Cc1nc(-c2ccccc2)no1)C(=O)c1ccc([N+](=O)[O-])cc1
i,0.92,CCOC(=O)C1C(c2ccc([N+](=O)[O-])cc2)C2C(=O)NN=C2CC1(C)O (stereo not drawn)
i,-0.23,COc1ccc(CC(=O)NNC(=O)Cc2ccc(OC)cc2)cc1
i,2.6,Cc1ccc(-c2nnc(NC(=O)c3ccco3)o2)c(C)c1
i,0.67,Cc1ccc(CSc2nnc([C@@H]3CCCN3)o2)cc1
i,1.2,Cc1ccc(S(=O)(=O)NCCC(=O)OCC(=O)Nc2cccc(S(=O)(=O)NC3=NCCCCC3)c2)cc1
i,-0.77,O=C1c2ccccc2NC(c2ccc(Cl)cc2Cl)N1Cc1ccccc1 (stereo not drawn)
i,2.1,O=C(c1ccco1)N1CCN(c2ccc(Cl)c(Cl)c2)CC1
i,-0.54,O=C1NCCN1CCNS(=O)(=O)c1ccc(F)c(Cl)c1
i,-0.8,CCCOc1ccc(-c2nnn(CC(=O)c3ccc4c(c3)OCCO4)n2)cc1
i,2.8,CCC1=[N+](CC(=O)c2ccc(Br)cc2)CCn2c(C)ccc21
i,0.06,Cc1ccc(CNC(=O)C2CCCN(c3nc(C)cc(C)n3)C2)cc1 (stereo not drawn)
i,0.92,CCCc1cc(=O)oc2c(C)c(OCC(=O)Nc3ccc(CN4CCOCC4)cc3)ccc12
i,1.2,Cc1cc2cc3c(cc2nc1SCC(=O)Nc1nc(C)c(C)s1)OCO3
i,-1.9,O=c1ccc(-c2ccccc2)nn1Cc1ccccc1F
i,0.09,CC(=O)N1CCN(C(=O)CSc2nnc(C)n2-c2ccccc2)CC1
i,-1,C(=Nc1cccc2c(N=Cc3ccco3)cccc12)c1ccco1
i,-0.54,O=[N+]([O-])c1cccc(C(=S)N2CCN(c3ccccc3)CC2)c1
i,0.29,COc1ccc2c(CC(=O)OCC(=O)Nc3ccc4c(c3)OCO4)coc2c1
i,-0.53,Cc1ccc(-n2c(SCC(=O)NCC3CCCO3)nc3n[nH]c(C)c3c2=N)cc1Cl (stereo not drawn)
i,1.2,CCC1/C(=N\O)CC(c2ccco2)NC1c1ccco1 (stereo not drawn)
i,-1.4,O=C(COC(=O)c1cc([N+](=O)[O-])ccc1N1CCOCC1)c1ccc(Br)cc1
i,1,Cn1c(Cn2c3ccccc3c3ccccc32)n[nH]c1=S
i,0.68,O=C(c1cc2cc(F)ccc2[nH]1)N1CCN(Cc2ccc3c(c2)OCO3)CC1
i,0.02,COc1cc(OC)cc(-c2nc(-c3cccs3)no2)c1
i,0.36,Cc1nc(C)c(C(=O)NNS(=O)(=O)c2ccccc2)s1
i,3.1,CC1CCC(C(C)C)C(OCC(O)CNC(C)(C)C)C1 (stereo not drawn)
i,-0.22,CCn1nc(CC(=O)Nc2nnc(CC(=O)N3CCCCC3)s2)c2ccccc2c1=O

Part of the list above, tab-delimited:
SMILES	KCNQ2 block	KCNQ2 block baseline
Cc1ccc(CNC(=O)C2CCCN(c3nc(C)cc(C)n3)C2)cc1 (stereo not drawn)	i	0.06
CCCc1cc(=O)oc2c(C)c(OCC(=O)Nc3ccc(CN4CCOCC4)cc3)ccc12	i	0.92
Cc1cc2cc3c(cc2nc1SCC(=O)Nc1nc(C)c(C)s1)OCO3	i	1.2
O=c1ccc(-c2ccccc2)nn1Cc1ccccc1F	i	-1.9
CC(=O)N1CCN(C(=O)CSc2nnc(C)n2-c2ccccc2)CC1	i	0.09
C(=Nc1cccc2c(N=Cc3ccco3)cccc12)c1ccco1	i	-1
O=[N+]([O-])c1cccc(C(=S)N2CCN(c3ccccc3)CC2)c1	i	-0.54
COc1ccc2c(CC(=O)OCC(=O)Nc3ccc4c(c3)OCO4)coc2c1	i	0.29
Cc1ccc(-n2c(SCC(=O)NCC3CCCO3)nc3n[nH]c(C)c3c2=N)cc1Cl (stereo not drawn)	i	-0.53
CCC1/C(=N\O)CC(c2ccco2)NC1c1ccco1 (stereo not drawn)	i	1.2
O=C(COC(=O)c1cc([N+](=O)[O-])ccc1N1CCOCC1)c1ccc(Br)cc1	i	-1.4
Cn1c(Cn2c3ccccc3c3ccccc32)n[nH]c1=S	i	1
O=C(c1cc2cc(F)ccc2[nH]1)N1CCN(Cc2ccc3c(c2)OCO3)CC1	i	0.68
COc1cc(OC)cc(-c2nc(-c3cccs3)no2)c1	i	0.02
Cc1nc(C)c(C(=O)NNS(=O)(=O)c2ccccc2)s1	i	0.36
CC1CCC(C(C)C)C(OCC(O)CNC(C)(C)C)C1 (stereo not drawn)	i	3.1
CCn1nc(CC(=O)Nc2nnc(CC(=O)N3CCCCC3)s2)c2ccccc2c1=O	i	-0.22

The list continues.
KCNQ2 block,KCNQ2 block baseline,SMILES
i,2.3,O=C(Nc1cccc2ccccc12)N1CCN(Cc2ccccc2)CC1
i,-0.04,CC(C)(O)c1cc(=O)sc2nc3ccccc3n12
i,0.19,C=CCc1ccccc1OCCn1nnc2ccccc21
i,-2.1,CNC(=O)C1CC(=O)N(Cc2ccc3c(c2)OCO3)C(=Nc2ccc(F)cc2)S1 (stereo not drawn)

Bioassay records (PubChem)
